# A1 inh – blocks A1 activity; actives 0.51% (n = 21,000); MEF A1-2A-BIM cells, caspase-Glo luminescence, 3 h; percent of clofoctol signal, DMSO as zero; caspase activation, % (test concentration not listed); AID 2241;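 active = most replicate scores above 10, or exactly half above 10 with mean activity above 10; inconclusive = mean activity below 10 while half the replicates exceed 10; inactive = most replicate scores below 10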;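 also: effector caspase 3 and 7 activity cleaving a DEVD luciferin substrate; 50 nL library stock added to about 30 µL; numbers are from one replicate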
# BJeLR viab HTS – BJeLR cell viability reduction | BJeLR fibroblasts viability, CellTiterGlo ATP luminescence, 48 h; HRASV12, hTERT and SV40 LT/ST transformed | viability loss activity score, % (test concentration not listed) | actives 0.64% (n = 30,000); in the data active = viability loss activity score above about 50%; inconclusive = no clear call, values can overlap the other calls; inactive = below about 35%; about a fifth of its hits are not listed in these tables;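 also: higher score means fewer live cells and less ATP luminescence; stock transfer was 50 or 100 nL into about 30 µL; 0% = vehicle wells and 100% = a reference killing control; one replicate is shown; the record names a cut of 85%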
# * = called active by the depositor; ? = inconclusive; / = not tested or not shown.
entry	mol	A1 inh	BJeLR viab HTS
1	Cc1noc(C)c1S(=O)(=O)Nc1ccc2c(c1)C(=O)N([C@@H](C)CO)C[C@H](C)[C@H](CN(C)Cc1ccc(Cl)c(Cl)c1)O2	-0.3	0.2
2	C[C@@H]1CN([C@H](C)CO)C(=O)c2cccc(NC(=O)c3nc4ccccc4s3)c2O[C@@H]1CN(C)C(=O)Nc1ccccc1	/	0.5
3	CSc1scc(N)c1S(=O)(=O)C(C)C	-0.1	-0.6
4	COc1ccc(S(=O)(=O)Nc2ccc3c(c2)C(=O)N([C@H](C)CO)C[C@@H](C)[C@H](CN(C)C(=O)NC(C)C)O3)cc1	0.1	-3.0
5	CNC[C@H]1Oc2ccc(NC(=O)Cc3cn(C)c4ccccc34)cc2C(=O)N([C@H](C)CO)C[C@H]1C	-0.4	1.7
6	Cc1ccc(C=C2C(=O)NC(=O)NC2=O)cc1	0.0	-7.2
7	C[C@H]1CN([C@@H](C)CO)C(=O)c2cc(NC(=O)Nc3ccc4c(c3)OCO4)ccc2O[C@@H]1CN(C)S(=O)(=O)c1ccccc1	0.6	0.0
8	C[C@@H]1CN([C@@H](C)CO)C(=O)c2cc(NC(=O)Cc3ccccc3)ccc2O[C@H]1CN(C)CC1CCCCC1	/	-3.6
9	Cc1ccc2nc(-c3ccncc3)cc(-c3ccccc3)c2c1	?	1.2
10	C[C@H](CO)N1C[C@H](C)[C@@H](CN(C)C(=O)Nc2ccc(C(F)(F)F)cc2)Oc2ccc(NS(=O)(=O)c3ccccc3)cc2C1=O	0.0	-0.7
11	CCN1C(=O)c2ccccc2Sc2ccc(C(=O)NCC3CCCO3)cc21 (stereo not given)	1.1	1.1
12	Cc1ccc(-c2csc(CS(=O)(=O)C(C)(C)C)n2)cc1	1.6	3.2
13	C[C@@H]1CN([C@H](C)CO)C(=O)c2cc(NC(=O)Cc3ccccc3)ccc2O[C@H]1CN(C)S(=O)(=O)c1ccc(F)cc1	0.4	1.7
14	O=C(CCCCc1cccs1)Nc1ccccc1F	-4.1	3.7
15	C[C@H]1CN([C@@H](C)CO)C(=O)c2cc(NS(=O)(=O)c3cccs3)ccc2O[C@H]1CN(C)C(=O)Nc1ccccc1	0.2	3.9
16	C[C@H]1CN([C@@H](C)CO)C(=O)c2cccc(NS(=O)(=O)c3ccc(F)cc3)c2O[C@H]1CN(C)C(=O)Nc1cccc2ccccc12	/	9.1

# For convenience, some entries already given:
entry	mol	A1 inh	BJeLR viab HTS
13	C[C@@H]1CN([C@H](C)CO)C(=O)c2cc(NC(=O)Cc3ccccc3)ccc2O[C@H]1CN(C)S(=O)(=O)c1ccc(F)cc1	0.4	1.7
14	O=C(CCCCc1cccs1)Nc1ccccc1F	-4.1	3.7
15	C[C@H]1CN([C@@H](C)CO)C(=O)c2cc(NS(=O)(=O)c3cccs3)ccc2O[C@H]1CN(C)C(=O)Nc1ccccc1	0.2	3.9
16	C[C@H]1CN([C@@H](C)CO)C(=O)c2cccc(NS(=O)(=O)c3ccc(F)cc3)c2O[C@H]1CN(C)C(=O)Nc1cccc2ccccc12	/	9.1

# Later entries:
entry	mol	A1 inh	BJeLR viab HTS
17	COc1ccc(-n2cc(-c3ccccc3)c3c(N4CCCCC4)ncnc32)cc1	-1.1	1.8
18	C[C@@H]1CN([C@@H](C)CO)C(=O)c2cccc(NS(C)(=O)=O)c2O[C@@H]1CN(C)S(=O)(=O)c1cn(C)cn1	/	-1.5
19	COc1ccc(S(=O)(=O)N(C)C[C@@H]2Oc3c(NC(=O)Nc4ccccc4)cccc3C(=O)N([C@H](C)CO)C[C@@H]2C)cc1	/	2.6
20	COc1ccc(S(=O)(=O)N(C)C[C@@H]2Oc3ccc(NC(=O)Cc4ccccc4)cc3C(=O)N([C@H](C)CO)C[C@H]2C)cc1	-0.2	-4.9
21	C[C@@H]1CN([C@@H](C)CO)C(=O)c2cccc(NC(=O)C3CCOCC3)c2O[C@H]1CN(C)C(=O)Nc1ccc(F)cc1	/	-5.0
22	Cc1ccc(S(=O)(=O)N(C)C[C@@H]2Oc3c(NC(=O)Nc4ccc(F)cc4)cccc3C(=O)N([C@@H](C)CO)C[C@H]2C)cc1	/	5.3
23	Cc1c(-c2ccccc2OC(=O)c2ccccc2)[nH]c2ccccc12	0.6	2.3
24	NNC(=O)c1csc(CS(=O)(=O)c2ccc(Cl)cc2)n1	0.7	-3.8
25	C[C@H](CO)N1C[C@H](C)[C@H](CN(C)S(=O)(=O)c2cn(C)cn2)Oc2c(NS(=O)(=O)c3ccc(Cl)cc3)cccc2C1=O	/	-1.0
26	CCCCn1c(CN2CCN(CC)CC2)nc2c1c(=O)[nH]c(=O)n2C	-0.8	-5.2
27	O=C(NCCO)c1cc2ccccc2c(=O)s1	/	-1.2
28	CCOC(=O)c1nc(-c2ccccc2)sc1-c1ccnn1C(=O)NC(C)C	-6.0	-3.0
29	C[C@@H]1CN([C@H](C)CO)C(=O)c2cccc(NS(=O)(=O)c3ccccc3)c2O[C@H]1CN(C)CC1CCCCC1	/	-4.2
30	S=c1[nH]c(=S)c2cnc(N3CCc4ccccc43)nc2[nH]1	-1.6	1.6
31	Cc1cccc(C)c1Nc1c(CN2C(=O)c3ccccc3C2=O)nc2ccc(Br)cn12	/	3.3
32	Cc1cc(C)nc(Nc2n[nH]c(-c3ccccc3C)n2)n1	/	1.4
33	C[C@H](CO)N1C[C@H](C)[C@H](CN(C)C(=O)NC2CCCCC2)Oc2c(NS(=O)(=O)c3ccc(F)cc3)cccc2C1=O	/	-1.3
34	COC(=O)COc1ccc2c(c1)C(=NO)c1cc(OCC(=O)OC)ccc1-2	/	-8.0
35	COc1ccc(-n2nnc3c(SCC(=O)Nc4cccc(C(F)(F)F)c4)ncnc32)cc1	-5.0	-2.6
36	Cc1ccc(S(=O)(=O)NCCSc2cc(C(F)(F)F)nc3ccccc23)cc1	-0.3	-0.8
37	C[C@H](CO)N1C[C@H](C)[C@H](CN(C)S(=O)(=O)c2cccs2)Oc2c(NC(=O)C3CCCCC3)cccc2C1=O	/	0.9
38	C[C@H]1CN([C@@H](C)CO)C(=O)c2cc(NS(=O)(=O)c3ccc(Cl)cc3)ccc2O[C@@H]1CN(C)S(=O)(=O)c1ccccc1	-0.3	-1.1
39	COc1ccc(S(=O)(=O)Nc2cccc3c2O[C@H](CN(C)S(=O)(=O)c2ccccc2)[C@@H](C)CN([C@H](C)CO)C3=O)cc1	/	1.7
40	COc1ccc(NC(=O)Nc2cccc3c2O[C@H](CN(C)C(=O)Nc2cccc4ccccc24)[C@@H](C)CN([C@@H](C)CO)C3=O)cc1	/	-1.6
41	CCCS(=O)(=O)N1CCCC(C(=O)N2CCN(c3ccccc3)CC2)C1 (stereo not given)	1.6	-0.4
42	Cc1ccc(S(=O)(=O)N(C)C[C@@H]2Oc3ccc(NC(=O)CCCCCC(=O)Nc4ccccc4N)cc3C(=O)N([C@@H](C)CO)C[C@H]2C)cc1	/	-5.3
43	CCOC(=O)c1cnn(-c2ccccc2)c1NC(=O)Nc1cccc(Cl)c1	0.4	-0.4
44	C[C@@H]1CN([C@@H](C)CO)C(=O)c2cc(NS(=O)(=O)c3ccc(Cl)cc3)ccc2O[C@H]1CN(C)C(=O)Nc1ccc(C(F)(F)F)cc1	-0.2	-3.2
45	COC(=O)c1ccc(CSc2nc(-c3cccs3)cc(C(F)(F)F)n2)cc1	0.5	0.6
46	COc1ccc(CN(C)C[C@@H]2Oc3c(NS(=O)(=O)c4ccc(C)cc4)cccc3C(=O)N([C@@H](C)CO)C[C@@H]2C)cc1	/	-4.0
47	C[C@H]1CN([C@@H](C)CO)C(=O)c2cccc(NC(=O)NC3CCCCC3)c2O[C@H]1CN(C)S(=O)(=O)c1cn(C)cn1	/	-0.9
48	Cn1c(SCc2ccc(F)cc2)nnc1C1COc2ccccc2O1 (stereo not given)	0.3	-1.5
49	CC(C)NC(=O)Nc1ccc2c(c1)C(=O)N([C@H](C)CO)C[C@@H](C)[C@H](CN(C)Cc1ccc(-c3ccccc3)cc1)O2	0.6	1.6
50	Cc1ccc2c(c1)N(CCCC(=O)N1CCCCC1)C(=O)CO2	-0.3	-3.1
51	C[C@@H]1CN([C@@H](C)CO)C(=O)c2cc(NC(=O)Nc3cccc4ccccc34)ccc2O[C@@H]1CN(C)Cc1ccc(-c2ccccc2)cc1	0.2	-0.7
52	C[C@H](CO)N1C[C@H](C)[C@H](CN(C)S(=O)(=O)c2ccc(F)cc2)Oc2ccc(NS(=O)(=O)c3cccs3)cc2C1=O	-1.0	0.0
53	CCOC(=O)c1oc2ccccc2c1NC(=O)c1ccc(S(=O)(=O)N(C)C)cc1	0.3	3.6
54	Clc1ccc(/C=N\n2cnnc2)c(Cl)c1	-0.6	-0.1
55	Cc1ccc(NS(=O)(=O)c2ccc(NC(=O)CN3C(=O)c4cccc5cccc3c45)cc2)cc1	/	-0.3
56	C[C@H](CO)N1C[C@H](C)[C@@H](CN(C)S(=O)(=O)c2cn(C)cn2)Oc2ccc(NS(=O)(=O)c3ccc(Cl)cc3)cc2C1=O	0.3	1.9
57	C[C@H](CO)N1C[C@H](C)[C@@H](CN(C)CC2CCCCC2)Oc2ccc(NC(=O)C3CC3)cc2C1=O	0.0	1.7
58	Cc1nc2c3ccccc3n3c(CCCC(=O)NC4CCCCC4)nnc3n2n1	-0.2	-3.1
59	COc1cccc2sc(NC(=O)c3ccc(S(=O)(=O)N(C)C)cc3)nc12	-1.1	5.7
60	C[C@H](CO)N1C[C@H](C)[C@@H](CN(C)CC2CC2)Oc2c(NC(=O)c3cnccn3)cccc2C1=O	/	2.5
61	COc1ccc(NC(=O)N(C)C[C@@H]2Oc3c(NS(C)(=O)=O)cccc3C(=O)N([C@H](C)CO)C[C@H]2C)cc1	/	9.1
62	COc1ccc(NC(=O)N(C)C[C@@H]2Oc3ccc(NS(=O)(=O)c4ccccc4)cc3C(=O)N([C@H](C)CO)C[C@@H]2C)cc1	0.3	1.5
63	COc1ccc2c(c1)c(=O)c(S(=O)(=O)c1ccccc1)cn2Cc1ccccc1	1.3	-1.8
64	C[C@@H]1CN([C@@H](C)CO)C(=O)c2cc(NC(=O)Cc3cn(C)c4ccccc34)ccc2O[C@H]1CN(C)S(=O)(=O)c1cccs1	0.0	-2.0
65	COc1ccc(C2=NN(CC(=O)NCc3ccc4c(c3)OCO4)C(=O)CC2)cc1	0.4	-4.5
66	CC(C)(C)C(=O)Nc1cccc(-c2cc(-c3c(Cl)cccc3Cl)no2)c1	-1.4	-3.5
67	Cc1cc(C)c2cccc(NC(=O)COc3ccc4oc5c(c4c3)CCCC5)c2n1	/	3.9
68	COc1ccc(Br)cc1CNC(=O)c1cc(-c2ccccc2)n(C)c1C	-0.1	-4.9
69	CC1(C)CC(=O)c2cc(OCC(=O)NCCN3CCOCC3)ccc2O1	/	-0.2
70	C[C@H]1CN([C@@H](C)CO)C(=O)c2cccc(NC(=O)NC3CCCCC3)c2O[C@H]1CN(C)C	/	2.9
71	C[C@H]1CN([C@@H](C)CO)C(=O)c2cc(NS(=O)(=O)c3ccc(Cl)cc3)ccc2O[C@@H]1CN(C)C(=O)Nc1ccc(C(F)(F)F)cc1	0.2	-8.7
72	Cc1cc(C)c2cc(C(=O)Nc3ccccc3Cl)[nH]c2c1	-0.2	-6.1

# Next part
entry	mol	A1 inh	BJeLR viab HTS
73	O=C(COc1ccccc1)Nc1cccc(C(F)(F)F)c1	-0.2	-4.9
74	CCN1CCN(CCCNC(=O)c2n[nH]c(=O)c3ccccc23)CC1	/	1.6
75	C[C@@H]1CN([C@H](C)CO)C(=O)c2cc(NC(=O)C3CCCCC3)ccc2O[C@@H]1CN(C)C(=O)Nc1cccc2ccccc12	0.0	2.0
76	CCC1=Nc2cc(C(=O)NCC3CCCO3)ccc2Sc2ccc(Br)cc21 (stereo not given)	/	24.2
77	Cc1noc(C)c1NC(=O)N(C)C[C@@H]1Oc2ccc(NC(=O)Cc3cn(C)c4ccccc34)cc2C(=O)N([C@@H](C)CO)C[C@H]1C	-0.8	2.5
78	Cc1ccc(S(=O)(=O)N(C)C[C@H]2Oc3c(NC(=O)Nc4ccc(F)cc4)cccc3C(=O)N([C@@H](C)CO)C[C@H]2C)cc1	/	-0.8
79	COc1ccc(NC(=O)Nc2cccc3c2O[C@@H](CN(C)C)[C@@H](C)CN([C@@H](C)CO)C3=O)cc1	/	-3.7
80	C[C@@H]1CN([C@@H](C)CO)C(=O)c2cc(NC(=O)CCCN(C)C)ccc2O[C@@H]1CN(C)Cc1ccc(C(=O)O)cc1	1.0	-2.0
81	CCc1ccc(-n2c(N)c(C(=O)OC)c3nc4ccccc4nc32)cc1	-0.1	-10.7
82	O=S1(=O)CC2C(C1)N(c1ccccc1)C(=S)N2c1ccccc1 (stereo not given)	1.2	-4.9
83	Cc1noc(C)c1NC(=O)Nc1cccc2c1O[C@@H](CN(C)C(=O)Nc1ccccc1)[C@H](C)CN([C@H](C)CO)C2=O	/	2.0
84	C[C@@H]1CN([C@H](C)CO)C(=O)c2cc(NC(=O)Nc3ccccc3)ccc2O[C@H]1CN(C)Cc1ccc2c(c1)OCO2	0.9	5.0
85	CNC[C@H]1Oc2c(NS(C)(=O)=O)cccc2C(=O)N([C@@H](C)CO)C[C@H]1C	/	-4.3
86	O=C(CSc1c(-c2ccccc2)c2cc(Cl)ccc2[nH]c1=O)NC1CCCC1	-0.1	1.1
87	C[C@@H]1CN([C@@H](C)CO)C(=O)c2cc(NS(=O)(=O)c3ccc(Cl)cc3)ccc2O[C@H]1CN(C)Cc1ccncc1	0.2	1.2
88	CN(/N=C(\C#N)C(=O)C1CC1)c1ccc(Cl)cc1	0.1	-0.5
89	COc1ccc(NC(=O)C2CC(=O)NC(=Nc3ccccc3)S2)cc1 (stereo not given)	-0.7	-4.3

# Source: PubChem

# Some of the compounds tested; the hit share may differ from the screen's.
